Bioassay records deposited in PubChem BioAssay by several laboratories.
HNF4A DNA FP = change in binding of human HNF4 alpha to DNA; 360,000 compounds, 0.3% hits; activity change, % at 10 µM; HNF4a-FITC DNA binding, fluorescence polarization, 1 h; P41235; in the data active means activity change above about 30%, passing the limit was not always enough;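 further: controls were the assay level and a saturating level of protein; the project sought stronger binding though the title names inhibitors; some compounds called inactive have numbers as strong as hits; positive values seem to mean higher polarization but the record does not say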
FGF22 binding = binders of recombinant human FGF22 by thermal shift. Q9HCT0. SYPRO orange fluorescence; percent of sucrose octasulfate shift, DMSO zero. calls only at 9.99 µM. 340,000 compounds, 1.5% hits. AID 651658;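 active means melting point raised past a set limit in the mean and every replicate; three in four hits are not shown here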
Target sequence (Q9HCT0 whole entry, looked up): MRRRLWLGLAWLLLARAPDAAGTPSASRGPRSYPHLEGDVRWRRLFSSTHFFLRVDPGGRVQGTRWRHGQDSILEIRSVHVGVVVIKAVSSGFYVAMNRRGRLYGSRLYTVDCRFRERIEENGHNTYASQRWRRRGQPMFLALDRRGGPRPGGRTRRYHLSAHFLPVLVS
MLL AF4-AF9 inh = inhibitors of human MLL-AF4/AF9 interaction | 350,000 compounds, 0.47% hits | AID 651704 | P42568 | AlphaScreen, biotin-AF4 peptide binding to FLAG-AF9 | inhibition, % at 10 µM;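 active means every replicate reaching a set inhibition limit, whatever the replicate mean, cut at about 25% in these data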;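 further: 0% = plate neutral control median and 100% = total signal loss; the record names both 10 and 1 µM as test concentration; the first replicate is given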
Target sequence (P42568 whole entry, looked up): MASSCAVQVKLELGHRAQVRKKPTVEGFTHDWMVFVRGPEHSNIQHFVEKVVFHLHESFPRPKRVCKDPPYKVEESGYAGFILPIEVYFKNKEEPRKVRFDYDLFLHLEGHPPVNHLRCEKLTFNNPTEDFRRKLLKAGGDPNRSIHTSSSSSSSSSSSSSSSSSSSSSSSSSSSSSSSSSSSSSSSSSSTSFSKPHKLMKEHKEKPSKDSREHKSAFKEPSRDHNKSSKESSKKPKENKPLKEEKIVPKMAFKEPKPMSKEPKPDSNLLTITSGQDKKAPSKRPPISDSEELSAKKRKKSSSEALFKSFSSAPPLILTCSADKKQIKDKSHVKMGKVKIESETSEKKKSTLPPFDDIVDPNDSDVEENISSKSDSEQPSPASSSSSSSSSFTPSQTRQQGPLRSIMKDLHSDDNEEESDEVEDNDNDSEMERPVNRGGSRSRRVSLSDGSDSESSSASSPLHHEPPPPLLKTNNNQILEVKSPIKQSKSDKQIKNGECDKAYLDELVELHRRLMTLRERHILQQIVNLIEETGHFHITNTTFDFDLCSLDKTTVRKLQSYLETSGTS
E coli growth = inhibitors of Escherichia coli growth; 330,000 compounds, 0.21% hits; OD600 absorbance (test concentration not listed); AID 1053175; OD600, 23 h; stronger effect = lower value;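 active means OD600 absorbance below the run mean of sample wells minus 3.6 SD, in any replicate, cut at about 0.56 in these data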;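 further: stock transfer was 300 nL into about 60 µL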
Ecoli rRNA inh = selective bacterial rRNA inhibition in E. coli. E. coli WT GFP vs humanized-ribosome RFP mutants, fluorescence, 24 h; stronger effect = lower value; DMSO median 0, no signal -100. GFP signal change (wild-type ribosome), % (concentration not given with the values). 350,000 compounds, 1.6% hits;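 active means significant combined selectivity score with lowered wild-type GFP, culture density cut under 30%, mutant RFP and density less affected; inactive means any of these conditions unmet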; further: one replicate is shown; some compounds called inactive have numbers as strong as hits
ALR inh = blocks human ALR sulfhydryl oxidase activity; inhibition, % (concentration not given with the values); P55789; 290,000 compounds, 3.8% hits; purified ALR, DTT oxidation, H2O2 HRP-luminol luminescence; AID 485317;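 active means mean and each replicate at 75% or more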;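 further: stock transfer was 7.5 nL into about 7.5 µL; 0% = neutral wells and 100% = wells with inactivated enzyme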
Target sequence (P55789 whole entry, looked up): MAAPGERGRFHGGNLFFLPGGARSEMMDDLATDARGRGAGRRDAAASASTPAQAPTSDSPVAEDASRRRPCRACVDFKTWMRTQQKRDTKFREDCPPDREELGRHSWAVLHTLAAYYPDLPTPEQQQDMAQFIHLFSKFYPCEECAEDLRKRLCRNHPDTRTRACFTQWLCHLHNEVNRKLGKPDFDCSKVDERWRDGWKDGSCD
Vif TR-FRET = HIV-1 Vif–A3G interaction blockers – biochemical, TR-FRET, GST-Vif 1-94, biotin-A3G peptide, dose response retest, primary screen (AID 1117319); inhibition, %; hits with a dose series show IC50 in µM; 260,000 compounds, 0.57% hits; TR-FRET GST-Vif / biotin-A3G peptide binding; higher % means a stronger effect; test concentration not given here; strong numbers were not always called active;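 active means above the screen mean plus three standard deviations and confirmed in dose response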;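 further: Vif residues 1-94 fused to GST binding biotinylated APOBEC3G peptide 110-148; 0% = full assay without inhibitor and 100% = GST in place of GST-Vif; retest series ran down from 100 µM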
Ecoli rRNA inh OD600 = further read-out of Ecoli rRNA inh, marked with its call; OD600 change, %; measured here: OD600 growth;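 optical density of the mix in the first replicate; 0 = DMSO median and -100 = no signal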
Ecoli rRNA inh RFP = also measured in Ecoli rRNA inh; calls as there; RFP signal change, %; measured here: RFP humanized mutant strains;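 first replicate; 0 = DMSO median and -100 = no signal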
An asterisk follows results filed as active; i = inactive; . = no result given. A portion of the library; count on the stated rates, not on these rows.

HNF4A DNA FP	FGF22 binding	MLL AF4-AF9 inh	E coli growth	Ecoli rRNA inh	Ecoli rRNA inh OD600	Ecoli rRNA inh RFP	ALR inh	Vif TR-FRET	Structure
1.2	i	-0.4	0.698	6.4	4.0	5.7	-20.8	-2.6%	COc1ccc(-c2nc3c4ccccc4ccn3c2C=O)cc1
-4.4	i	-1.1	0.666	.	.	.	-2.3	-10.0%	CC(Sc1nc2ccccc2[nH]1)C(=O)Nc1ccccc1F (stereo not drawn)
-0.5	.	.	0.676	.	.	.	-2.2	-1.6%	O=C(NCc1ccccc1F)c1cccs1
-0.9	i	-11.2	0.615	-10.2	-13.9	-1.1	14.7	7.3%	CC(=O)OCC1=C(C(=O)O)N2C(=O)C(NC(=O)CCn3nc(C(F)(F)F)c(Br)c3C3CC3)C2SC1 (stereo not drawn)
5.6	.	.	0.749	.	.	.	-5.0	.	Cc1cccc(-c2nsc(SCC(=O)NCc3ccc4c(c3)OCO4)n2)c1
.	i	-0.2	.	-0.4	-6.3	-0.6	.	.	COc1ccc(S(=O)(=O)N(C)C[C@H]2Oc3ccc(NC(=O)Cn4cnnn4)cc3CC(=O)N([C@@H](C)CO)C[C@H]2C)cc1
12.4	i	-7.6	.	-24.9	-51.2	-7.4	.	.	N#Cc1ccc2[nH]cc(C3c4cc(F)ccc4C=C(c4ccsc4)N3c3ccc(C#CCCO)cc3)c2c1 (stereo not drawn)
0.0	i	-1.0	0.664	-2.3	9.0	-4.5	-6.8	.	CCCCn1c(=O)[nH]c(=O)c2c1nc(-c1ccc(C(F)(F)F)cc1)n2C
0.6	i	-3.8	0.686	-6.1	-17.8	-3.1	-2.5	.	O=S1(=O)CCN(C(CCO)c2cccc(C(F)(F)F)c2)CC1 (stereo not drawn)
.	i	-4.1	.	-0.5	7.8	-0.4	.	.	Cc1ccc(S(=O)(=O)Nc2ccc3c(c2)C(=O)N([C@@H](C)CO)C[C@@H](C)[C@@H](CN(C)S(=O)(=O)c2ccc(C)cc2)OCCCC[C@@H](C)O3)cc1
-1.4	i	-2.3	.	11.6	21.6	-2.6	.	.	C[N+](C)(C)CCNC(=O)c1ccccc1
.	i	-1.3	.	1.5	-1.7	-2.5	.	.	O=C(N[C@@H]1CC[C@H](CCNC(=O)c2ccccc2F)O[C@@H]1CO)c1cnccn1
-0.1	i	-0.7	0.688	4.0	6.1	-1.0	.	-0.9%	COC(=O)CC1COc2ccccc2N1C(=O)c1cc(OC)c(OC)c(OC)c1 (stereo not drawn)
-1.3	.	.	0.716	.	.	.	-0.6	-1.1%	CCOc1cccc2c1OC1(C)CC2NC(=O)N1c1cccc(F)c1 (stereo not drawn)
.	i	0.8	.	2.3	9.8	0.1	.	.	CO[C@H]1CN(C)C(=O)c2ccc(NC(=O)C3CC3)cc2OC[C@@H](C)N(C(=O)c2ccccn2)C[C@H]1C
2.5	.	.	0.747	.	.	.	-14.1	4.4%	COc1ccc(OC)c(C2C(C(=O)Nc3nc4ccccc4s3)=C(C)NC3=C2C(=O)CCC3)c1 (stereo not drawn)
1.6	i	2.6	0.646	7.6	41.7	24.7	0.1	.	CCOC(=O)C(CN1CCCC1)c1ccccc1 (stereo not drawn)
0.7	i	6.3	0.676	-1.1	-6.7	-0.8	.	-0.8%	O=C(CN1CCOCC1)Nc1c(C(=O)C2CC2)oc2ccccc12
0.1	i	4.9	0.674	3.7	6.0	-1.9	-3.3	-0.4%	CC1Cn2c(nnc2-c2ccccc2O)S1 (stereo not drawn)
2.5	i	4.4	0.696	-4.3	0.7	-2.0	-4.9	-0.7%	CS(=O)(=O)Nc1ccc(C2=NN(C(=O)c3ccco3)C(c3ccc(F)cc3)C2)cc1 (stereo not drawn)
-1.1	i	4.7	.	-1.2	-1.4	-5.1	-8.2	.	CN1C(=O)[C@H]2[C@@H](/C=C/c3ccccc3)N3C(=O)CN(Cc4ccc(-c5ccccc5)cc4)C(=O)[C@@]3(Cc3ccccc3)[C@H]2C1=O
2.1	i	0.6	.	-1.1	7.9	1.1	.	.	CC(C)N(C)c1ncnc2c1ncn2[C@H]1CN(Cc2ccc3c(c2)OCO3)C[C@@H](CO)O1
-2.5	i	.	0.697	-0.8	9.9	3.4	.	.	Cn1cnc([N+](=O)[O-])c1Sc1ncnc2nc[nH]c12
-2.9	.	.	0.63	.	.	.	12.5	-0.3%	Cc1ccc(NC(=S)NN(C)c2nc(C)cnc2C)cc1
0.6	i	1.1	.	-8.3	-15.1	-0.4	1.6	-5.4%	COc1ccc(C2/C=C\CN(C(=O)C3CC3)CC(=O)N2Cc2ccc(F)cc2)cc1 (stereo not drawn)
3.8	.	.	0.665	.	.	.	-0.4	13.1%	Cc1ccc(C)c(Cc2c(C)nc3c(C(=O)N4CCOCC4)cnn3c2C)c1
1.5	i	-4.1	.	.	.	.	.	.	CCc1ccc(CN(C)Cc2c(C(=O)N3CCOCC3)nc3c(C)cccn23)nc1
-2.1	.	.	0.654	.	.	.	-6.0	1.8%	Cc1nc(N2CCNCC2)c2c3c(sc2n1)CCCC3
-3.2	.	.	0.68	.	.	.	-1.9	0.3%	CC(=O)NC1=NC(=O)CS1
1.4	.	.	0.756	.	.	.	2.7	0.5%	Cc1ccc(OCCCC(=O)N2CCOCC2)c(C)c1
-5.3	.	.	0.66	.	.	.	44.1	-1.1%	COc1cccc(-c2nc(NCCN3CCOCC3)c3ccccc3n2)c1O
.	i	4.1	.	-3.2	-9.9	3.7	.	.	C[C@@H]1CN([C@@H](C)CO)C(=O)c2cc(NC(=O)Cn3cnnn3)ccc2O[C@@H]1CN(C)Cc1ccc(-c2ccccc2)cc1
0.4	i	-6.7	0.671	4.8	5.4	-0.9	-31.8	-10.9%	Cc1nnc(NC(=O)CC(C)c2ccccc2)s1 (stereo not drawn)
-1.4	i	-11.2	.	7.1	1.9	0.0	.	.	Cc1ccc(Cn2cc(CN3CC(N4CCN(C)CC4)CS3(=O)=O)nn2)cc1 (stereo not drawn)
4.1	i	7.5	.	-6.7	-9.8	5.7	.	7.6%	N#CCCN(NC(=O)OCc1ccccc1)C(=O)OCc1ccccc1
3.7	i	0.1	0.69	-3.6	-9.5	1.7	2.3	-3.3%	COc1ccc(CCNC(=S)c2ccccc2)cc1OC
-4.5	.	.	0.712	.	.	.	30.1	-0.7%	Cc1nn(-c2ccccc2)c(C)c1C1C(C#N)=C(N)Oc2n[nH]c(C)c21 (stereo not drawn)
-4.0	i	-1.3	0.659	7.8	1.8	-0.8	-5.1	.	COc1ccc(-c2c(C)nn3c(N4CCC(C(=O)N5CCCCC5)CC4)cc(C)nc23)cc1OC
2.8	i	1.4	.	2.4	-0.5	3.7	.	.	COc1ccc(NC(=O)c2cc(C3CCCCN3C(=O)OCc3ccccc3)on2)c(C)c1 (stereo not drawn)
3.5	i	-4.0	.	2.6	4.4	2.1	.	-4.9%	CCOC(=O)C1CCN(C(=O)c2sc3ncn(CC(=O)N4CCCCC4)c(=O)c3c2C)CC1
-1.5	i	0.2	0.705	-2.9	-3.7	2.1	-14.8	8.0%	CCOC(=O)C1(CCc2ccccc2)CCN(C(=O)C(C)n2cncn2)CC1 (stereo not drawn)
-1.4	i	0.4	.	7.3	7.0	-1.2	.	.	O=C(NCc1cccs1)c1csc(COCCO)n1
1.2	i	-2.7	0.683	14.6	13.4	-5.8	1.5	15.1%	CCCN(C(=O)c1nc2nccc(C)n2n1)c1c(N)n(Cc2ccccc2)c(=O)[nH]c1=O
-1.0	i	-14.3	0.748	5.0	0.6	-10.8	-11.7	-1.8%	COc1ccc(CNC(=O)Cn2nc(Cc3cccnc3)c3ccccc3c2=O)cc1
-0.9	i	-1.5	0.712	12.2	6.9	-1.2	1.1	-8.8%	CS(=O)(=O)N(CCC#N)Cc1ccc(C=O)o1
0.2	.	.	0.695	.	.	.	-8.4	-12.2%	CC(OC(=O)CCN1C(=O)c2cccc([N+](=O)[O-])c2C1=O)C(=O)Nc1cc(Cl)cc(Cl)c1 (stereo not drawn)
1.4	.	.	0.642	.	.	.	-5.5	10.8%	CN(CCOC(=O)c1ccccc1)Cc1ccccc1
-1.1	i	-2.1	0.701	-1.7	-14.2	-0.6	-4.4	.	O=C(c1ccc2ccccc2c1)C1CCCN(C(=O)c2cnccn2)C1 (stereo not drawn)
9.3	.	.	0.787	.	.	.	-0.2	24.5%	CC(=O)CS(=O)(=O)c1ccc(Oc2ccc(S(=O)(=O)CC(C)=O)cc2)cc1
1.7	.	.	0.714	.	.	.	-1.0	1.6%	O=C(NCCO)c1nc(NCCO)c2ccccc2n1
4.6	i	-11.9	0.633	2.3	4.9	-0.1	.	-0.4%	CCOc1ccc(C(=O)NCC(=O)NNC(=O)C2COc3ccccc3O2)cc1OCC (stereo not drawn)
-1.4	.	.	0.665	.	.	.	11.4	17.0%	CCOc1cc2[nH]c(=O)n(CCCCC(=O)N3CCCCCC3)c(=O)c2cc1OCC
.	i	2.9	.	-2.4	2.8	-0.5	.	.	O=C(C[C@@H]1CC[C@H](NC(=O)c2cccnc2)[C@H](CO)O1)NCc1ccc(Cl)c(Cl)c1

13 neighbouring compounds out of the list so far, quoted:
HNF4A DNA FP	FGF22 binding	MLL AF4-AF9 inh	E coli growth	Ecoli rRNA inh	Ecoli rRNA inh OD600	Ecoli rRNA inh RFP	ALR inh	Vif TR-FRET	Structure
-1.5	i	0.2	0.705	-2.9	-3.7	2.1	-14.8	8.0%	CCOC(=O)C1(CCc2ccccc2)CCN(C(=O)C(C)n2cncn2)CC1 (stereo not drawn)
-1.4	i	0.4	.	7.3	7.0	-1.2	.	.	O=C(NCc1cccs1)c1csc(COCCO)n1
1.2	i	-2.7	0.683	14.6	13.4	-5.8	1.5	15.1%	CCCN(C(=O)c1nc2nccc(C)n2n1)c1c(N)n(Cc2ccccc2)c(=O)[nH]c1=O
-1.0	i	-14.3	0.748	5.0	0.6	-10.8	-11.7	-1.8%	COc1ccc(CNC(=O)Cn2nc(Cc3cccnc3)c3ccccc3c2=O)cc1
-0.9	i	-1.5	0.712	12.2	6.9	-1.2	1.1	-8.8%	CS(=O)(=O)N(CCC#N)Cc1ccc(C=O)o1
0.2	.	.	0.695	.	.	.	-8.4	-12.2%	CC(OC(=O)CCN1C(=O)c2cccc([N+](=O)[O-])c2C1=O)C(=O)Nc1cc(Cl)cc(Cl)c1 (stereo not drawn)
1.4	.	.	0.642	.	.	.	-5.5	10.8%	CN(CCOC(=O)c1ccccc1)Cc1ccccc1
-1.1	i	-2.1	0.701	-1.7	-14.2	-0.6	-4.4	.	O=C(c1ccc2ccccc2c1)C1CCCN(C(=O)c2cnccn2)C1 (stereo not drawn)
9.3	.	.	0.787	.	.	.	-0.2	24.5%	CC(=O)CS(=O)(=O)c1ccc(Oc2ccc(S(=O)(=O)CC(C)=O)cc2)cc1
1.7	.	.	0.714	.	.	.	-1.0	1.6%	O=C(NCCO)c1nc(NCCO)c2ccccc2n1
4.6	i	-11.9	0.633	2.3	4.9	-0.1	.	-0.4%	CCOc1ccc(C(=O)NCC(=O)NNC(=O)C2COc3ccccc3O2)cc1OCC (stereo not drawn)
-1.4	.	.	0.665	.	.	.	11.4	17.0%	CCOc1cc2[nH]c(=O)n(CCCCC(=O)N3CCCCCC3)c(=O)c2cc1OCC
.	i	2.9	.	-2.4	2.8	-0.5	.	.	O=C(C[C@@H]1CC[C@H](NC(=O)c2cccnc2)[C@H](CO)O1)NCc1ccc(Cl)c(Cl)c1
